Bfl-1 A1 inh: inhibitors of the anti-apoptotic protein A1, read as caspase activation; MEF A1-2A-BIM cells, Caspase-Glo 3/7 luminescence, 3 h; percent of clofoctol response, vehicle zero; caspase activation, % (test concentration not listed); hit rate 0.066% among 330,000; AID 2462;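 active = over half of replicate activation scores above 10%, or exactly half above 10 with the replicate mean above 10; inconclusive = replicate mean below 10 yet half the replicates above 10; inactive = over half of replicates below 10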;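 note: wells of about 30 µL received 50 nL stock; many hits fall short of the cut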
T cruzi inh: T. cruzi replication inhibition; T. cruzi beta-gal in NIH3T3, luminescence, 90 h; inhibition, % (no concentration beside the values); hit rate 1.4% among 300,000;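 active = mean inhibition across valid replicates above about 55%, limit read from the data; inconclusive = mean below that limit but half or more replicates reach it; inactive = mean below it, under half of replicates reach it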;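 note: signal also drops with host cell toxicity which is not excluded here; 0% = plate median of DMSO wells and 100% = zero luminescence signal; higher percent means less beta-gal luminescence so fewer parasites; stock transfer was 50 nL into about 50 µL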
RanGTP-Imp inh: inhibitors of RanGTP-importin-beta interaction, primary screen, biochemical, FRET, CFP-Ran, YFP-importin-beta, homogeneous; inhibition, % (concentration not given with the values); cell-free CFP-Ran/YFP-importin-beta FRET ratio; hit rate 1.1% among 300,000;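 active = most replicates above 15%; inconclusive = exactly half above 15%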;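 note: 0% = DMSO wells and 100% = Ran loaded with GDP instead of GTP; wells of about 40 µL received 100 nL stock; the first replicate is given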
LANA-H2B inh: blocks KSHV LANA binding to histone H2A/H2B | Q9QR71 | cell-free LANA-H2A/H2B peptide, fluorescence polarization | inhibition, % (test concentration not listed) | hit rate 0.6% among 320,000; in the data active = inhibition mostly above about 10%, no sharp cut-off; inactive = mostly below about 6.7%;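 note: stock transfer was 7.5 nL into about 10 µL; 0% = median of vehicle wells and 100% = median of positive control wells; one replicate is shown; the record names a cut of 25% in any replicate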
Vif A3G: inhibitors of Vif binding to APOBEC3G peptide, primary screen, biochemical, TR-FRET, GST-Vif 1-94, biotin-A3G peptide, dose response retest (AID 1117319) | inhibition, %; hits with a dose series show IC50 in µM | hit rate 0.57% among 260,000 | TR-FRET GST-Vif / biotin-A3G peptide binding; higher % means a stronger effect; test concentration not given here; strong numbers were not always called active;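 active = above the screen mean plus three standard deviations and confirmed in dose response; inconclusive = results disagree or hit not tested in dose response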;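 note: Vif residues 1-94 fused to GST binding biotinylated APOBEC3G peptide 110-148; 0% = full assay without inhibitor and 100% = GST in place of GST-Vif; retest series ran down from 100 µM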
MLL AF4-AF9 inh: blocks AF4 peptide binding to human AF9; P42568; AlphaScreen, biotin-AF4 peptide binding to FLAG-AF9; inhibition, % at 10 µM; hit rate 0.47% among 350,000; AID 651704;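 active = every replicate reaching a set inhibition limit, whatever the replicate mean, cut at about 25% in these data; inconclusive = mean inhibition reaches that limit but some replicates miss it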;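 note: 0% = plate neutral control median and 100% = total signal loss; the record names both 10 and 1 µM as test concentration; the first replicate is given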
Target sequence (P42568 whole entry, looked up): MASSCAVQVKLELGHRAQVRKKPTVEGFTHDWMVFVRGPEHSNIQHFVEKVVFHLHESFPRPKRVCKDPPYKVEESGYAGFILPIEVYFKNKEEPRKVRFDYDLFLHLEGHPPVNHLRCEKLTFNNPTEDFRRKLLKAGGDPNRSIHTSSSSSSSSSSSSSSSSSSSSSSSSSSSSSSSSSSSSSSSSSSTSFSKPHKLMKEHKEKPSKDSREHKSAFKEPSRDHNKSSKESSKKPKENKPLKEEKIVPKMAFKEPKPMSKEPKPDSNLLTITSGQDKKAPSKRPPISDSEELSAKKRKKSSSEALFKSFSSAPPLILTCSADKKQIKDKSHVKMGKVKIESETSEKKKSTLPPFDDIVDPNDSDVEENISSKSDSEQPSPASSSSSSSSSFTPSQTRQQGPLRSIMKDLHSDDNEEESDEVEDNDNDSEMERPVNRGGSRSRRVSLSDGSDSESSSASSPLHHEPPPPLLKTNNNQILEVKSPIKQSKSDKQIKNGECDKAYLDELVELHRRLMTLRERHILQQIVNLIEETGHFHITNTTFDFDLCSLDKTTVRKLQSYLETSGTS
Beta cell apopt: beta cell apoptosis inhibition | protection from apoptosis, % (test concentration not listed) | hit rate 0.8% among 300,000 | AID 435005 | INS-1E cytokine-induced death, ATP luminescence, 48 h; percent of positive-control rescue, neutral wells zero;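 active = all replicates at 75% or more, or half of them and the mean; inconclusive = half reach 75% but not the mean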;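 note: 0% = cytokine-treated negative control wells and 100% = positive control rescue; higher means more ATP so stronger rescue from cytokine killing; wells of about 40 µL received 100 nL stock; the first replicate is given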
Calb FLC: C. albicans growth modulation with fluconazole. hit rate 0.57% among 300,000. C. albicans CaCi-2 (fluconazole-resistant clinical isolate) + fluconazole, Alamar Blue growth, 48 h. growth inhibition, % (no concentration beside the values);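 active = most replicates above 75%; inconclusive = exactly half above 75%; inactive = most below 75%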;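 note: all wells also contain fluconazole at 8 µg/ml as a sub-toxic cotreatment; 0% = median of DMSO wells and 100% = median of geldanamycin control wells; wells of about 8 µL received 7.5 nL stock; the first replicate is given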
Starred values were filed as active, the others as inactive; ? = inconclusive; / = no result given; & = joins results of further samples.

entry	structure	Bfl-1 A1 inh	T cruzi inh	RanGTP-Imp inh	LANA-H2B inh	Vif A3G	MLL AF4-AF9 inh	Beta cell apopt	Calb FLC
1	COc1ccc(NC(=O)C2CCN(C(=O)c3cccs3)CC2)cc1	-0.6	-4	1.2	1.2	-3%	/	2	-3
2	CCS(=O)(=O)CCSC(=N)N	-0.7	3	3.5	-1.6	6%	-0.1	-8	-22
3	Cc1ccc(C)c(C(=O)COC(=O)c2ccc(C)c(S(=O)(=O)N3CCOCC3)c2)c1	0.0	/	/	14*	4%	0.3	-3	/
4	CCOc1cc(N2CCOCC2)c(OCC)cc1NC(=O)COC(=O)CCc1c[nH]c2ccccc12	-0.4	-8	-0.8	4.7	6%	/	1	-3
5	COc1ccccc1CN(Cc1nc2ccccc2c(=O)[nH]1)S(=O)(=O)c1ccc(C)cc1	0.4	23	-3.1	3.7	4%	6.8	/	3
6	CCOC(=O)c1c(N)sc2c1CCC(CC)C2 (stereo not given)	-0.4	1	-0.8	6.8	-1%	/	2	-3
7	CC(=O)Nc1ccc(S(=O)(=O)N2CC3(C)CC2CC(C)(C)C3)cc1 (stereo not given)	0.3	-4	1.7	4.5	-1%	-2.4	3	1
8	CC(C)N1CCC(N2CCN(Cc3nc4ccccc4s3)CC2CCO)CC1 (stereo not given)	0.0	1	3.5	3.7	/	1.6	-7	5
9	CCC1=NN2C(=N)/C(=C\c3ccc(OCc4cc(=O)n5nc(CC)sc5n4)c(OC)c3)C(=O)N=C2S1	/	-8	-2.5	/	25%	-5.0	/	4
10	CCC(NS(=O)(=O)c1ccc(C)cc1)C(=O)Nc1ccc(NC(C)=O)cc1 (stereo not given)	0.6	-23	-2.7	-2.3	2%	/	-7	5
11	CCC(C)[C@H](NC(=O)N1CC(=O)Nc2ccccc21)C(=O)N1CCC[C@@H]1C(=O)O (stereo not given in full)	-0.3	-16	3.6	-1.0	/	-1.0	-3	4
12	COc1ccc(CNC(=O)CN2C(=O)NC3(CCCc4sccc43)C2=O)cc1OC (stereo not given)	1.7	/	/	2.2	-8%	-1.2	-1	/
13	COc1ccc(OC)c(S(=O)(=O)NC2CCSc3ccccc32)c1 (stereo not given)	-0.7	13	1.8	5.3	0%	1.4	-5	9
14	CCN(Cc1nc2ccccc2c(=O)[nH]1)C(=O)CN1C(=O)NC2(CCCCC2C)C1=O (stereo not given)	1.8	/	/	3.1	-5%	-0.2	-3	/
15	COc1ccc(NC(=O)CSc2nc3ccsc3c(=O)n2CCC(=O)O)c(OC)c1	0.3	-17	1.0	2.2	/	0.8	-2	-4
16	CCn1nc(C(=O)OCC(=O)N(CC(C)C)c2c(N)n(Cc3ccccc3)c(=O)[nH]c2=O)c2ccccc2c1=O	0.4	-6	2.6	3.2	5%	-0.9	-4	1
17	COc1ccc(CNC(=O)C2CC(=O)N(c3ccc(OCC(=O)N4C(C)CCCC4C)cc3)C2)cc1 (stereo not given)	-0.4	-4	-4.9	-4.3	4%&3%	/	-2	-19
18	C/C(CCc1oc2ccc(Br)cc2c1-c1ccc(C)o1)=N/O	-0.5	-4	4.5	-5.4	19%	/	6	-13
19	Oc1ccccc1/C=N/Nc1nn[nH]n1	0.1	-15	-0.9	-1.0	-2%	-26	-4	3
20	CC(C)N(C)CCOC(=O)c1ccccc1Br	0.0	-6	-0.3	1.0	?	/	2	-8
21	O=C(/C=C/c1ccc(-c2ccccc2[N+](=O)[O-])o1)c1ccco1	0.5	3	1.8	-1.5	4%	15	-6	11
22	O=C(O)CCn1nnc(-c2ccccc2)n1	0.0	6	9.8	3.7	3%	-1.2	-3	-4
23	COc1cccc(C2C(C#N)=C(N)OC3=C2C(=O)CC(c2ccco2)C3)c1OCc1ccc(F)cc1 (stereo not given)	0.1	32	2.3	-8.3	7.8µM*	/	0	5
24	O=C(c1cc2ccccc2cc1O)N1CCN(c2ccc([N+](=O)[O-])cc2)CC1	1.0	3	0.7	-2.3	-8%	2.8	-2	20
25	NCCCC[C@H](N)c1nnc([C@H](CCC(=O)O)NC(=O)C2CCNCC2)o1	0.3	-1	2.8	-0.5	6%	28*	-1	-3

(further entries)
entry	structure	Bfl-1 A1 inh	T cruzi inh	RanGTP-Imp inh	LANA-H2B inh	Vif A3G	MLL AF4-AF9 inh	Beta cell apopt	Calb FLC
26	O=C(CCNS(=O)(=O)c1ccc(Br)s1)NC1CCCC1	1.1	7	?	-3.3	0%	/	-9	-26
27	COc1ccc(C)cc1NC(=O)CN(c1ccccc1)S(C)(=O)=O	0.4	-3	-3.9	0.2	-6%	/	-5	50
28	CCOCCCNC(=O)c1cccc(OC2CCN(S(C)(=O)=O)CC2)c1	-0.4	-4	1.6	-3.6	/	-1.0	-5	-5
29	COc1ccc(-c2nc(CS(=O)CC(=O)N3CCc4ccccc4C3)c(C)o2)cc1 (stereo not given)	-0.4	-12	-3.0	2.9	-1%	-1.1	-8	-7
30	Cc1nnc(N=c2ssnc2Cl)o1	0.9	/	/	-6.1	/	-21	?	/
31	COc1ccc(-n2c(CCc3ccccc3)n[nH]c2=S)cc1	-0.1	29	-0.7	5.0	-4%	-5.2	4	35
32	CCC(CO)Nc1ncc([N+](=O)[O-])cc1C#N (stereo not given)	0.2	-18	3.9	-4.6	/	-15	-7	0
33	CCOc1ccc(S(=O)(=O)N(CC)CC(=O)N2CCCC2)cc1C	-0.1	5	2.7	-2.0	/	2.0	/	1
34	Oc1cccc(/C=N/N2CCN(C3c4ccccc4-c4ccccc43)CC2)c1	0.2	-4	10.0	0.4	-5%	-1.5	-1	3
35	Nc1ccc(S(=O)(=O)Nc2nc(-c3ccccc3)cc(-c3ccccc3)n2)cc1	1.2	8	-0.3	0.0	25%	/	0	-4
36	CC(=O)C1=C(N2CCCCC2)CCC1=O	1.9	-9	7.2	-1.8	69%	/	/	-2
37	O=C(CN1C(=O)S/C(=C\c2ccccc2F)C1=O)Nc1ccccc1O	-0.5	-20	-2.1	-0.3	3%	1.3	-2	5
38	CN(C)/C=N/c1nc2nccc(-c3cccnc3)n2n1	0.0	-21	-1.7	2.0	-4%	-0.9	-1	17
39	CC1=C(C)CC(C(=O)NCc2ccc3c(c2)OCO3)C(C(=O)O)C1 (stereo not given)	0.4	-15	2.9	2.7	?	/	-2	-23
40	Cc1ccc(O)c(O)c1	-0.6	-29	3.4	-2.8	/	/	-9	-4
41	CCOC(=O)[C@@H]1[C@H]2COc3ccc(Br)cc3[C@@H]2N2C(=O)N(c3ccc(C(F)(F)F)cc3)C(=O)[C@]12C	-0.5	-8	2.5	-3.9	/	-1.1	9	22
42	OCCN(CCO)c1ccc(C(c2ccc(Cl)cc2)c2ccc(N(CCO)CCO)cc2Cl)c(Cl)c1	-0.1	6	-1.0	0.1	24%	6.4	1	2
43	Cc1ccc(CN2CCN(C(=O)C3CCCO3)CC2)cc1 (stereo not given)	0.9	-3	-2.0	4.0	3%	/	-6	-12
44	Cc1cccc(NC(=O)CCS(=O)(=O)c2ccc3c(c2)NC(=O)CS3)n1	0.4	-22	22	2.9	2%	-1.1	-8	1
45	COc1ccc(NC2CCCN(C(=O)CN3CCOC3=O)C2)cc1OC (stereo not given)	0.3	-12	2.4	-2.6	1%	-1.0	-1	4
46	CCOC(=O)C(Sc1nnc(-c2ccncc2)o1)C(C)=O (stereo not given)	0.3	3	-1.2	-2.3	26%	/	-3	7
47	CC(=O)Nc1ccc(S(=O)(=O)NCCCN2CCN(Cc3ccccc3)CC2)cc1Cl	0.5	/	2.2	-0.8	17%	-4.8	2	1
48	Cc1cccc(CNc2ncnc3ccc(-c4ccoc4)cc23)c1	1.6	/	/	2.1	/	-1.2	-16	/
49	COc1ccccc1C(=O)C1CCCN(Cc2ccc(Oc3ncccn3)cc2)C1 (stereo not given)	-0.4	73*	-2.8	0.1	/	0.7	3	0
50	COc1cccc(-n2nnc3c(=O)n(CC(=O)NCC4CCCO4)cnc32)c1 (stereo not given)	0.3	-19	2.9	0.1	-2%	-6.8	-4	-3

Later entries
entry	structure	Bfl-1 A1 inh	T cruzi inh	RanGTP-Imp inh	LANA-H2B inh	Vif A3G	MLL AF4-AF9 inh	Beta cell apopt	Calb FLC
51	O=C(CCCc1ccccc1)Nc1nncs1	1.8	0	-1.4	-3.8	2%	/	1	-4
52	CC(Oc1ccccc1)C(=O)Nc1nnc(C2CCCCC2)s1 (stereo not given)	0.5	-7	-2.3	0.7	/	2.1	-2	-9
53	O=S(=O)(c1ccc(-c2ccon2)s1)N1CCCC1	-0.1	15	2.2	3.0	-1%	-1.0	-7	7
54	O=C(Nc1ccc(F)cc1)c1nc[nH]c1C(=O)Nc1ccc([N+](=O)[O-])cc1	0.8	-74	/	9.9	?	0.5	15	/
55	COc1cccc(NC(=O)N2CCCC2C(=O)NC23CC4CC(CC(C4)C2)C3)c1 (stereo not given)	0.2	-9	0.9	9.3	/	-1.7	-5	-20
56	O=C(Nc1ccc(Cl)cc1)C1C2CCCCC21 (stereo not given)	0.0	45	2.1	5.2	/	-3.1	5	17
57	O=C(c1ccc(S(=O)(=O)N2CCCCCC2)cc1)N1CCN(c2ccccc2F)CC1	-0.7	21	3.6	3.4	/	-21	7	10
58	CCCN1CCN(CCCNC(=O)c2cc3c(=O)[nH]c4ccc(C)cc4c3s2)CC1	-0.1	13	-2.7	5.5	-6%	1.8	-1	2
59	CC(/C=N/Nc1nncc(=O)[nH]1)=C\c1ccccc1	-0.5	-13	5.0	0.5	28%	-3.1	-6	-1
60	COc1ccc(-c2cc(C(=O)NN3CCOCC3)c3ccccc3n2)cc1OC	/	0	-3.0	/	/	-1.8	/	-8
61	CCOc1ccc(NC(=O)CN(C)C(=O)c2ccccc2SCc2c(C)noc2C)cc1OCC	-0.5	6	1.5	1.3	-13%	3.3	3	5
62	Cc1cccc(-n2ncc3c(NNC(=O)c4ccco4)ncnc32)c1	1.2	-28	3.5	4.2	/	0.3	-14	-2
63	COC(=O)C1CCCN1C(=O)c1cccs1 (stereo not given)	0.6	-2	0.7	2.2	-1%	/	/	-6
64	O=c1oc2ccccc2c(Nc2cccc(O)c2)c1[N+](=O)[O-]	0.2	-6	-3.2	0.3	16%	/	0	14
65	Cc1ccc(C)c(SCC(=O)N(C)C2CCS(=O)(=O)C2)c1 (stereo not given)	-1.1	/	/	-2.6	/	-4.8	-5	/
66	O=c1[nH]cnc2c1ncn2Cc1ccc([N+](=O)[O-])cc1	0.6	-9	-6.8	9.5	8%	-5.0	-2	-2
67	CCC(C)N(C(=O)Cn1nnc(-c2ccc(F)cc2)n1)C1CCS(=O)(=O)C1 (stereo not given)	0.1	0	1.1	1.8	/	-1.1	0	-8
68	O=C(NCc1ccc(F)cc1)c1cccnc1C(=O)O	0.8	-8	-0.6	-0.1	6%	-1.8	1	0
69	O=C(Nc1cccnc1)c1cc2nc(C3CC3)cc(C(F)(F)F)n2n1	0.4	2	-0.2	4.7	15%	/	2	-7
70	CC1(C)CC(=O)C(N=Nc2ccc(S(=O)(=O)N3CCCCCC3)cc2)=C(O)C1	0.3	-12	-1.1	3.6	/	/	-12	0

Compound activity: PubChem BioAssay, several laboratories
